From PubChem
Rango complex inh: inhibitors of Rango-importin beta complex formation. Q14974. Rango CFP/YFP FRET sensor + importin beta, 45 min. Potency, µM (titrated, usually from 92.2 µM), for the others: at the highest dose inhibition of complex formation. 340,000 compounds, 0.031% hits; active = rising FRET ratio curve, often small or poorly fitted; inconclusive = mostly compound fluorescence or quenching in the first reads; inactive = flat curves in all reads;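 note: potency is the fitted concentration of half-maximal effect; 0% = DMSO wells and 100% = buffer wells lacking importin beta; nearly all actives have a fitted effect of over 15% in size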
Target sequence (Q14974 whole entry, looked up): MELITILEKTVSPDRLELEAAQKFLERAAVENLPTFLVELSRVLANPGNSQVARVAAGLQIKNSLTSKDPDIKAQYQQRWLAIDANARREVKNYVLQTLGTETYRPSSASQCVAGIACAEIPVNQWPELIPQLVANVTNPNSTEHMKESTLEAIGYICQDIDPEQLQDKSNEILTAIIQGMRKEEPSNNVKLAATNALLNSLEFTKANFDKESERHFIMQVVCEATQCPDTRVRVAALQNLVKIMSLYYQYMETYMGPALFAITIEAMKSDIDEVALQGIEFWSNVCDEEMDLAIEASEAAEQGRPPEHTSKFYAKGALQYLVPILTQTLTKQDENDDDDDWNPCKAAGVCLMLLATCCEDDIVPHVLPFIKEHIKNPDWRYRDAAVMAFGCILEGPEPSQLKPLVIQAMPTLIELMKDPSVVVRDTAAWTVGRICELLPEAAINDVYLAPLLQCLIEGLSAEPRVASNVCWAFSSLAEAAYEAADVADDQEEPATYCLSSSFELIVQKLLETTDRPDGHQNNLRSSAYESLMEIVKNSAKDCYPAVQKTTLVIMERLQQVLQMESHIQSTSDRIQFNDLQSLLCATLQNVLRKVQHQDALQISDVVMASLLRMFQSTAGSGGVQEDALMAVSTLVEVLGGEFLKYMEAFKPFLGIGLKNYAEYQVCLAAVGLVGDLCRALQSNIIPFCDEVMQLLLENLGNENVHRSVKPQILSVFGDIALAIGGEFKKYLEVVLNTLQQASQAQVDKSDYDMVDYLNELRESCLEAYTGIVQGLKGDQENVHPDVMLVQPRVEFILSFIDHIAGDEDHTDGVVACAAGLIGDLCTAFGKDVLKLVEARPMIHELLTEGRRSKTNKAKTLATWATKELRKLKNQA
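Inhibition scored from the CFP 486 nm/YFP 530 nm FRET ratio 45 min after adding 0.125 microM importin beta to 50 nM Rango biosensor preincubated 5 min with compound (room temperature, PBS with DTT, Tween-20, BSA). No-importin wells as positive control.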
miR-21 FLuc: raises the signal of a miR-21 reporter; HeLa miR-21 FLuc reporter, luciferase, 48 h; Potency, µM (top dose mostly 38.3 µM), without a hit: at the highest dose reporter change, positive = more light; 340,000 tested, under 10 active; AID 2288; active = well fitted rising curve with a large enough effect; inconclusive = small, poorly fitted or top-dose-only effect; inactive = no such curve, though single readings can be large or run the other way;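 note: % of control where 0% means no effect; miR-21 action dims this reporter so a rising signal means less miR-21 action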
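HeLa cells endogenously expressing miR-21, stably carrying CMV-driven firefly luciferase with a downstream miR-21 binding site, 2000 cells/well. Titrations up to approximately 40 uM, 48 hours; luciferase luminescence read.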
Rango dissoc inh: inhibition of RanGTP-driven Rango-importin beta dissociation | O95149+P62826 | Biochemical FRET Rango-importin beta, RanGTP-induced dissociation | Potency, µM (series often up to 46.1 µM), inactives show at the highest dose activity change, negative = inhibition | 340,000 compounds, 0.071% hits; active means falling FRET ratio curve, often poorly fitted, with flat reads before Ran was added; inconclusive means other falling curves, or compound fluorescence or quenching; inactive means flat or rising ratio curve;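 note: potency is the fitted concentration of half-maximal effect; % of control where 0% means no effect; nearly all actives have a fitted effect of over 45% in size; -100% = wells without RanGTP and RCC1; the record marks most hits as doubtful in a second field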
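FRET read at 45 min, room temperature: inhibitors block the CFP/YFP signal rise when RanGTP (0.6 uM Ran, 2 mM GTP, 0.2 uM RCC1) frees Rango (0.1 uM) from importin beta (0.25 uM). Pre-read after 5 min compound exposure flags interference.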
GLA inh pH 4.5: alpha-galactosidase A (human) inhibition, pH 4.5; P06280; purified enzyme, 4-MU-alpha-Gal fluorescence, pH 4.5; activity change, negative = inhibition, % at 105 µM; 230,000 tested, under 10 active; AID 1467; inconclusive = small, poorly fitted or top-dose-only inhibition, or a rising curve; inactive = flat fitted curve, though single readings scatter; no compound was filed as active;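 note: 0% = full activity with enzyme and -100% = basal without enzyme; dose as in the result columns while the protocol names 77 µM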
The depositor's hits bear a star; ? = inconclusive; . = not tested or not shown; & = joins results of further samples. Not all compounds are listed. The share of hits here may be higher or lower than overall.

SMILES	Rango complex inh	miR-21 FLuc	Rango dissoc inh	GLA inh pH 4.5
CN(C(=O)CSc1ccc(S(=O)(=O)N2CCCCC2)cn1)c1ccccc1	0.0%	.	-7.7%	.
O=[N+]([O-])c1cncc([N+](=O)[O-])c1Nc1ccccc1Cl	1.3%	15.0%	0.2%	5.4
O=C1NC(=Nc2ccccc2)S/C1=C\c1cccs1	0.5%	-47.1%	-4.8%	-9.5
OCCN=c1cc(-c2ccccc2)oc2ccc(Cl)cc12	1.2%	0.1%	-6.7%	2.0
O=C(NC(NC(=S)Nc1cc(Cl)ccc1Cl)C(Cl)(Cl)Cl)c1ccco1 (centres undefined)	?	21.3%	0.9%	-23.9
Cc1ccc(NC(=S)N2CCn3cccc3C2c2cccnc2)cc1 (centres undefined)	-2.6%	-7.5%	16.3%	-2.5
Cc1ccc(S(=O)(=O)N2CCC(NC(=O)OC(C)C)CC2)cc1	-0.2%	4.4%	-2.9%	2.9
O=C(CSc1ccc2nnc(CCNC(=O)c3ccccc3)n2n1)NCc1ccco1	-0.1%	-9.3%	-13.5%	.
CCN(CC(=O)Nc1ccc(NC(C)=O)cc1)C(=O)c1ccc(=O)n(C)n1	-0.4%	.	10.6%	.
CC1CCN(S(=O)(=O)c2ccc3c(c2)c(=O)c(C(=O)N2CCCCC2)cn3C)CC1	0.0%	0.5%	3.7%	10.9
O=C(N/N=C/c1cc([N+](=O)[O-])ccc1N1CCCCCC1)c1ccccn1	0.0%	-37.5%	-5.3%	?
COc1ccccc1C(=O)NC(CCSC)C(=O)Nc1ccc(C)c(S(=O)(=O)N2CCOCC2)c1 (centres undefined)	2.0%	.	1.9%	.
CCN(CC)Cc1c(O)ccc2c(=O)c(Oc3ccccc3OC)c(C)oc12	-3.8%	0.7%	-14.5%	?
O=C(CCC(=O)OCC(=O)c1ccccc1)Nc1cccc2cccnc12	-0.1%	-2.8%	-13.6%	8.7
Cc1ccc(OC(=O)c2ccc3nc(C)sc3c2)cc1	?	-2.3%	?	-14.0
CC(C)(C)C(=O)Cn1c(NCCCO)nc2ccccc21	-1.9%	-4.8%	5.4%	8.7
Cc1[nH]nc2c1C(c1cccs1)C(C#N)=C(N)O2 (centres undefined)	-3.5%	4.0%	10.8%	1.0
COc1cc(NC(=O)CN2C(=O)NC(C)(c3ccc(OC(F)F)cc3)C2=O)cc(OC)c1OC (centres undefined)	-6.5%	21.3%	5.3%	.
CCOC(=O)CNC(=O)COc1coc(CN2CCN(c3ccc(F)cc3)CC2)cc1=O	2.7%	0.0%	?	.
CC(=O)Nc1nc(C)c(CCCOc2ccc([N+](=O)[O-])cc2)c(=O)[nH]1	-0.3%	-2.9%	-10.3%	-5.1
COC(=O)CCn1nnc(-c2ccc(C)cc2)n1	0.4%	6.6%	5.9%	-1.2
O=C(CN1C(=O)C2C3C=CC(C3)C2C1=O)NCCN1CCCc2ccccc21 (centres undefined)	0.7%	-4.5%	-3.2%	6.3
CC(C)SC1=NC(C)(C)C=C(/C=C/c2ccc(Cl)cc2Cl)N1	1.7%	5.1%	5.0%	-0.6
CSc1cc(C)n(-c2ccccc2C)c(=S)c1C(C)=O	-0.8%	-2.8%	9.7%	6.5
CC(NC(=O)c1ccc2ccccc2n1)c1ccc(Br)cc1 (centres undefined)	-2.1%	-19.7%	11.3%	.

Part of the list above, bar-delimited.
canonical_smiles | Rango complex inh | miR-21 FLuc | Rango dissoc inh | GLA inh pH 4.5
O=C(N/N=C/c1cc([N+](=O)[O-])ccc1N1CCCCCC1)c1ccccn1 | 0.0% | -37.5% | -5.3% | ?
COc1ccccc1C(=O)NC(CCSC)C(=O)Nc1ccc(C)c(S(=O)(=O)N2CCOCC2)c1 (centres undefined) | 2.0% | . | 1.9% | .
CCN(CC)Cc1c(O)ccc2c(=O)c(Oc3ccccc3OC)c(C)oc12 | -3.8% | 0.7% | -14.5% | ?
O=C(CCC(=O)OCC(=O)c1ccccc1)Nc1cccc2cccnc12 | -0.1% | -2.8% | -13.6% | 8.7
Cc1ccc(OC(=O)c2ccc3nc(C)sc3c2)cc1 | ? | -2.3% | ? | -14.0

(next part)
SMILES	Rango complex inh	miR-21 FLuc	Rango dissoc inh	GLA inh pH 4.5
CC(=O)Nc1ccc(S(=O)(=O)NC(C)c2ccccc2)cc1 (centres undefined)	0.8%	2.5%	5.5%	.
CCCCCC1C/C(=N\O)C=C(C)C1C(=O)OC (centres undefined)	0.6%	0.6%	1.8%	-2.7
C/C=C(\C)C(=O)NCCN1C2=NC[C@H](C)N2C[C@@H]1Cc1ccc(OC)cc1	0.5%	-2.9%	6.0%	-19.0
CCOC(=O)C1(Cc2ccc(Cl)cc2)CCN(Cc2cn(CC)nc2C)CC1	0.5%	8.6%	53.9%	-3.4
CC1CCCC(NC(=O)CCn2c(=S)oc3ccccc32)C1C (centres undefined)	3.5%	-8.8%	17.5%	-0.8
O=C(NCc1ccccn1)c1cc(-c2ccc(-c3ccccc3)cc2)nc2ccccc12	-0.2%	18.3%	-10.8%	0.9
Cc1ccc2c(c1)C(=O)C(=O)N2Cc1ccc(Br)cc1	0.2%	.	16.8%	.
CC(C)(C)c1cc(Cl)ccc1OCCn1ccnc1	9.6%	-3.7%	22.2%	.
Cc1nc2ncccn2c1-c1csc(Nc2ccc(N(C)C)cc2)n1	4.2%	5.5%	-9.3%	4.5
CCc1cc2cc(C)cc(C)c2nc1SCC(=O)NNC(=O)c1ccco1	-2.5%	-3.3%	0.9%	-0.4
Cc1cc(C)cc(OCC(=O)NCCc2nc3ccccc3[nH]2)c1	-6.9%	0.1%&6.0%	-8.5%	-3.8
CC(C)C(NC(=O)C(Cc1ccccc1)NC(=O)OCc1ccccc1)C(=O)O (centres undefined)	-2.6%	-0.2%	16.0%	-2.8
CS(=O)(=O)Nc1ccc(Cc2ccc(NS(C)(=O)=O)cc2)cc1	-2.0%	6.6%	1.0%	0.0
CC(C)(C)NC(=O)NC(=O)CN1CCN(c2cccc(Cl)c2)CC1	-3.6%	8.4%	-3.4%	-5.9
O=C(Nc1ccc2c(c1)OCCO2)c1cnccn1	-3.4%	-38.2%	1.0%	7.6
CCCC(=O)Nc1ccc(NC(=O)c2ccccc2OC)cn1	-0.4%	-32.5%	-6.1%	10.5
CC(=O)c1sc(N/N=C\c2cccc(Br)c2)nc1C	?	-46.3%	?	3.0
O=C(CCn1c(=O)oc2ccccc21)N1CCOCC1	?	-4.0%	-14.8%	-7.4
CC(=O)N1c2ccc(S(=O)(=O)N3CCC(C(=O)Nc4cccc(C)c4C)CC3)cc2CC1C (centres undefined)	1.6%	5.1%	-15.8%	.
O=C(COc1ncnc2ccccc12)N1CCN(S(=O)(=O)c2ccc(Cl)cc2)CC1	2.3%	-1.4%	3.6%	6.0
CCCC(C)NC(=O)COC(=O)c1cc(Br)c(Br)s1 (centres undefined)	0.0%	2.0%	-14.0%	3.8
CSCc1cccc(C(=O)OC(C)C(=O)Nc2c(C)n(C)n(-c3ccccc3)c2=O)c1 (centres undefined)	0.6%	.	34.0%	.
O=C(Nc1ccccc1Cl)NC1(C(=O)N2CCC(O)CC2)CCCCC1	0.0%	-1.3%	1.6%	.
COC(=O)C1=C(C)N=C2SC(C#N)=C(N)N2C1c1cc(OC)c(OC)c(OC)c1 (centres undefined)	?	-1.5%	?	4.7
Cc1nnc(NC(=O)CSc2nnc(Cc3ccccc3)n2Cc2ccccc2)s1	-2.7%	-4.7%	-13.3%	8.9

Later entries.
SMILES	Rango complex inh	miR-21 FLuc	Rango dissoc inh	GLA inh pH 4.5
O=C1CSC(c2cccnc2)N1Cc1ccc(Cl)c(Cl)c1 (centres undefined)	-3.5%	-14.1%	2.4%	-6.3
CCCn1nnc(NC(=O)c2cccc(Cl)c2)n1	-2.8%	-29.4%	-10.3%	10.8
CCNC(=S)N(Cc1cc2cccc(C)c2[nH]c1=O)C1CCCC1	5.1%	-5.6%	-10.1%	-0.5
O=C(OCc1cn(-c2ccc(Cl)c(Cl)c2)nn1)c1ccccc1Cl	-3.2%	-1.8%	2.8%	-2.7
CCOc1ccc(C(=O)CSc2nnc(C3CC3)n2C)cc1	3.6%	-15.8%	1.9%	6.3
C(C#CCN1CCOCC1)#CCN1CCOCC1	-0.2%	.	2.8%	.
CC(=O)c1ccc(OCCCC(=O)Nc2nnc(C3CC3)s2)cc1	-3.1%	.	26.1%	.
O=C(Cc1cccc(NC(=O)C2CCCN(C(=O)C3CCCC3)C2)c1)Nc1cccc(C(=O)N2CCOCC2)c1 (centres undefined)	-1.1%	.	2.4%	.
COc1cc(NC(=S)NCCc2ccccc2)c(OC)cc1NC(=O)C(C)C	-5.3%	0.1%	-8.4%	6.1
Cc1cc(Br)ccc1SCC(=O)OCC(=O)Nc1ccc2[nH]c(=O)[nH]c2c1	1.1%	.	-4.8%	.
O=C(/C=C/c1ccco1)NC(=S)Nc1nc(-c2ccc3ccccc3c2)cs1	-3.2%	-19.0%	-7.0%	3.6
COc1cc2c(cc1OC)CN(C(=S)Nc1cccc(Cl)c1C)CC2	0.7%	3.5%	0.5%	2.7
Cc1cc(C)cc(OCc2nnc(SCC(=O)N3CCCCC3)o2)c1	2.2%	-2.4%	-0.9%	.
CCN(CC)C(=O)c1cccc(NC(=O)CCc2nc3sc4c(c3c(=O)[nH]2)CCCC4)c1	2.4%	.	-13.2%	.
CCCCn1c(N)c(N(CC(C)C)C(=O)CN2C(=O)NC3(CCC(C(C)(C)CC)CC3)C2=O)c(=O)[nH]c1=O (centres undefined)	-0.4%	.	9.5%	.
CCc1cc(C(=O)OC)c(NC(=O)C2CC(=O)NN2Cc2ccccc2)s1 (centres undefined)	0.7%	-25.4%	-13.4%	-4.7
S=C(NCCc1ccc(Cl)cc1)NC1CC1	1.0%	-16.2%	-7.6%	6.0
COc1ccc(CN(C)CC2CCCN(CCc3ccccc3C)C2)cc1O (centres undefined)	1.3%	0.8%	-8.5%	.
CC(Sc1nnc(Cc2ccc([N+](=O)[O-])cc2)o1)C(N)=O (centres undefined)	0.7%	-0.2%	-11.4%	-5.5
Cc1ccc2oc(-c3cccc(NC(=O)Cc4cccs4)c3)nc2c1	-2.6%	-3.9%	1.1%	-6.9
O=C(CSc1nnc(NC(=O)c2ccccc2F)s1)NC1CCCC1	-0.3%	-37.7%	8.9%	.
COc1ccc([N+](=O)[O-])cc1NC(=O)C(C)Sc1nc(C)c(C)c(C)n1 (centres undefined)	-1.7%	-13.3%	0.4%	-6.9

Part of the list above, in markdown:
| SMILES | Rango complex inh | miR-21 FLuc | Rango dissoc inh | GLA inh pH 4.5 |
| --- | --- | --- | --- | --- |
| O=C(CCn1c(=O)oc2ccccc21)N1CCOCC1 | ? | -4.0% | -14.8% | -7.4 |
| CC(=O)N1c2ccc(S(=O)(=O)N3CCC(C(=O)Nc4cccc(C)c4C)CC3)cc2CC1C (centres undefined) | 1.6% | 5.1% | -15.8% | . |
| O=C(COc1ncnc2ccccc12)N1CCN(S(=O)(=O)c2ccc(Cl)cc2)CC1 | 2.3% | -1.4% | 3.6% | 6.0 |
| CCCC(C)NC(=O)COC(=O)c1cc(Br)c(Br)s1 (centres undefined) | 0.0% | 2.0% | -14.0% | 3.8 |
| CSCc1cccc(C(=O)OC(C)C(=O)Nc2c(C)n(C)n(-c3ccccc3)c2=O)c1 (centres undefined) | 0.6% | . | 34.0% | . |

Another view of three compounds above.
Below each compound: Rango complex inh, miR-21 FLuc, Rango dissoc inh, GLA inh pH 4.5
COc1ccc(CN(C)CC2CCCN(CCc3ccccc3C)C2)cc1O (centres undefined)
  1.3%, 0.8%, -8.5%, .
O=C(OCc1cn(-c2ccc(Cl)c(Cl)c2)nn1)c1ccccc1Cl
  -3.2%, -1.8%, 2.8%, -2.7
CCN(CC)C(=O)c1cccc(NC(=O)CCc2nc3sc4c(c3c(=O)[nH]2)CCCC4)c1
  2.4%, ., -13.2%, .
